High-throughput results as filed in PubChem BioAssay.
PD-1 reverse act: activators reversing PD-1 mediated T-cell inhibition, primary screen, luminescence, primary human CD4 T cells, PD-L1 beads. CellTiter-Glo 96 h. activation, % (concentration not given with the values). 29,000 tested, under 10 active;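 active = replicate mean of 50% or more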;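 note: 0% = median vehicle wells and 100% = positive control; 100 nL library stock added to about 50 µL; numbers are from one replicate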
Hedgehog inh: Hedgehog pathway signaling inhibitors, primary screen, luminescence, Shh-LIGHT2 cells, Gli-luciferase. actives 2.1% (n = 22,000). inhibition, % (concentration not given with the values). Shh-LIGHT2 Gli-luciferase reporter, 30 h. AID 2313, 2010;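 active = replicate mean of 65% or more; inconclusive = mean lower but half the replicates past it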;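 note: pathway switched on by Shh-conditioned medium diluted 1 in 25 in low serum; 100 nL library stock added to about 40 µL; 0% = median of neutral wells and 100% = positive control level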
YB-1 expr inh: inhibitors of YB-1 gene expression, primary screen, cell-based, fluorescence; delta delta Cp (YB-1 minus CDIP) (no concentration beside the values); U2OS, qRT-PCR YB-1 vs CDIP delta delta Cp, 16 h; hits give high values; zero = DMSO, each unit about twofold; actives 0.37% (n = 30,000);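 active = delta delta Cp rounded down to an integer at or above 3, about 3 SD of DMSO wells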;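 note: higher means less YB-1 transcript or more CDIP transcript relative to DMSO; stock transfer was 100 nL into about 100 µL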
MITF inhib: inhibitors of MITF, primary screen, MITF inhibitor project, cell-based, luminescence; actives 0.28% (n = 37,000); AID 2240, 2010; TRPM1 promoter luciferase, 24 h; inhibition, % (no concentration beside the values);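 active = most replicates at 85% or more, or half of them and the mean; inconclusive = half reach 85% but not the mean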;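 note: human melanocyte line stably carrying TRPM1 promoter luciferase reporter; 0% = vehicle wells and 100% = a positive control; the first replicate is given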
The depositor's hits bear a star; ? = inconclusive; nt = no result given. This is a subset; rates above refer to the full screens.

Structure,PD-1 reverse act,Hedgehog inh,YB-1 expr inh,MITF inhib
COc1cccc(NC(=O)CCN2C(=O)c3ccccc3S2(=O)=O)c1,3.2,nt,nt,-22
C[C@H]1CN([C@@H](C)CO)C(=O)c2cccc(NC(=O)c3ccc(-c4nccs4)cc3)c2O[C@H]1CN(C)C(=O)Nc1ccc(F)cc1,-0.8,-28,-0.97,-2
Cc1ccc(S(=O)(=O)Nc2ccc3c(c2)CC(=O)N([C@H](C)CO)C[C@H](C)[C@H](CN(C)Cc2ccccc2)O3)cc1,2.8,25,-0.23,-2
Cc1ccc(OCC(=O)Nc2ncccn2)c(C)c1,0.3,nt,nt,-74
CC(C)N(C(=O)Cn1c2ccccc2c2nc3ccccc3nc21)c1ccccc1,0.8,38,0.026,5
COc1ccc([N+](=O)[O-])cc1NC(=O)CN(C)S(=O)(=O)c1ccc(Cl)cc1,2.2,nt,nt,4
C[C@@H]1CN([C@H](C)CO)C(=O)Cc2cc(NC(=O)Nc3cccc4ccccc34)ccc2O[C@H]1CN(C)C(=O)Nc1ccc(F)cc1,nt,-34,-0.087,-22
C[C@@H]1CCCCO[C@@H](CN(C)C(=O)CCCN(C)C)[C@@H](C)CN([C@H](C)CO)C(=O)c2cc(NC(=O)NC3CCCCC3)ccc2O1,2.0,nt,-0.21,-3
COc1ccc(CN(C)C[C@H]2Oc3c(NC(=O)NC4CCCCC4)cccc3C(=O)N([C@@H](C)CO)C[C@H]2C)cc1,1.3,-80,0.33,-10
C[C@@H]1CN([C@H](C)CO)C(=O)c2cccc(NC(=O)Nc3ccc(C(F)(F)F)cc3)c2O[C@@H]1CN(C)Cc1ccc(Oc2ccccc2)cc1,nt,-3,0.017,-4
Cc1ccc(S(=O)(=O)c2c(C)nn(C(C)(C)C)c2OC(=O)c2ccccc2Br)cc1,-2.3,nt,nt,11
C[C@H](CO)N1C[C@H](C)[C@H](CN(C)S(=O)(=O)c2ccc(Cl)cc2)Oc2ccc(NC(=O)Nc3ccc(F)cc3)cc2C1=O,-2.6,nt,-0.39,-19
Cc1cc(Br)ccc1NC(=O)CSc1nnc(-c2ccccc2O)n1-c1ccccc1,0.9,nt,nt,-1
O=C(CN1CCc2ccccc2C1)Nc1ccc(S(=O)(=O)N2CCOCC2)cc1,-1.4,nt,nt,5
C[C@H](CO)N1C[C@H](C)[C@H](CN(C)C(=O)Nc2ccc(C(F)(F)F)cc2)Oc2c(NS(=O)(=O)c3ccc(Cl)cc3)cccc2C1=O,-3.1,5,-0.24,10
COc1ccc(NC(=O)N(C)C[C@@H]2Oc3ccc(NS(=O)(=O)c4cccs4)cc3C(=O)N([C@@H](C)CO)C[C@H]2C)cc1,-0.1,-33,0.1,-3
CCOC(=O)c1c(NC(=S)NC(=O)c2ccc(OC)c([N+](=O)[O-])c2)sc2c1CCC2,-0.2,nt,nt,-2
C[C@@H]1CN([C@@H](C)CO)C(=O)Cc2cc(NS(=O)(=O)c3ccccc3)ccc2O[C@@H]1CN(C)S(=O)(=O)c1ccc(F)cc1,0.1,-14,0.069,-17
COc1c(O[C@@H]2O[C@H](C(=O)O)[C@@H](O)[C@H](O)[C@H]2O)cc2oc(-c3ccc(O)cc3)cc(=O)c2c1O,2.7,7,-0.62,17
C[C@@H]1CN([C@H](C)CO)C(=O)Cc2cc(NC(=O)Cc3ccccc3)ccc2O[C@H]1CN(C)Cc1ccc2c(c1)OCO2,0.0,-9,-0.54,6
Cn1c(SCC(=O)N2c3ccccc3Sc3ccccc32)nnc1-c1ccco1,0.0,nt,nt,8
COC(=O)C1=C(N)OC2=C(C(=O)CC(C)(C)C2)C1c1ccc(C(=O)OC)cc1 (stereo not given),1.2,-26,0.46,-3
Cc1ccc(S(=O)(=O)Nc2ccc3c(c2)C(=O)N([C@H](C)CO)C[C@@H](C)[C@@H](CN(C)S(=O)(=O)c2ccc(F)cc2)O3)cc1,-0.8,24,0.22,-3
C[C@H]1CN([C@@H](C)CO)C(=O)c2cc(NC(=O)Nc3ccc(C(F)(F)F)cc3)ccc2O[C@@H]1CN(C)Cc1ccc(C(=O)O)cc1,1.0,nt,0.021,-3
CCc1cccc2c(C(C(=O)c3ccccc3)c3c[nH]c4c(CC)cccc34)c[nH]c12,-0.8,27,0.2,44

Reformatted: results already given.
C[C@@H]1CN([C@H](C)CO)C(=O)c2cccc(NC(=O)Nc3ccc(C(F)(F)F)cc3)c2O[C@@H]1CN(C)Cc1ccc(Oc2ccccc2)cc1
- PD-1 reverse act: nt
- Hedgehog inh: -3
- YB-1 expr inh: 0.017
- MITF inhib: -4

COc1cccc(NC(=O)CCN2C(=O)c3ccccc3S2(=O)=O)c1
- PD-1 reverse act: 3.2
- Hedgehog inh: nt
- YB-1 expr inh: nt
- MITF inhib: -22

Two records picked at random from those above:
Structure,PD-1 reverse act,Hedgehog inh,YB-1 expr inh,MITF inhib
C[C@H]1CN([C@@H](C)CO)C(=O)c2cccc(NC(=O)c3ccc(-c4nccs4)cc3)c2O[C@H]1CN(C)C(=O)Nc1ccc(F)cc1,-0.8,-28,-0.97,-2
C[C@@H]1CN([C@H](C)CO)C(=O)Cc2cc(NC(=O)Nc3cccc4ccccc34)ccc2O[C@H]1CN(C)C(=O)Nc1ccc(F)cc1,nt,-34,-0.087,-22

Continuation:
Structure,PD-1 reverse act,Hedgehog inh,YB-1 expr inh,MITF inhib
COc1ccc(S(=O)(=O)N(C)C[C@@H]2OCCCC[C@@H](C)Oc3ccc(NS(=O)(=O)c4ccc(C)cc4)cc3C(=O)N([C@H](C)CO)C[C@@H]2C)cc1,-2.9,4,-0.16,19
C[C@H]1CN([C@@H](C)CO)C(=O)Cc2cc(NC(=O)NC3CCCCC3)ccc2O[C@H]1CN(C)S(=O)(=O)c1ccc(F)cc1,1.4,19,0.071,14
C[C@H]1CN([C@@H](C)CO)C(=O)c2cc(NS(=O)(=O)c3ccccc3)ccc2O[C@H]1CN(C)S(C)(=O)=O,0.0,22,-0.057,-6
CC(=O)c1cccc(NC(=O)Cc2ccccc2[N+](=O)[O-])c1,0.0,nt,nt,16
COc1ccc2c(c1)CCC(=O)C2,0.4,-63,-0.31,-19
COc1ccc(C(C)C)cc1S(=O)(=O)Nc1ccccn1,1.5,nt,nt,-22
C[C@@H]1CN([C@H](C)CO)C(=O)c2cc(NC(=O)CCCN(C)C)ccc2O[C@H]1CN(C)Cc1ccc(C(=O)O)cc1,1.0,-13,-0.21,1
CC(C)NC(=O)N(C)C[C@H]1Oc2c(NC(=O)C3CC3)cccc2C(=O)N([C@H](C)CO)C[C@H]1C,1.0,-25,-0.21,-12
COc1ccc(NC(=O)N(C)C[C@H]2Oc3ccc(NS(=O)(=O)c4ccc(F)cc4)cc3C(=O)N([C@H](C)CO)C[C@@H]2C)cc1,nt,9,0.23,6
C[C@@H]1CN([C@H](C)CO)C(=O)c2cc(NC(=O)Nc3ccc(C(F)(F)F)cc3)ccc2O[C@@H]1CN(C)S(=O)(=O)c1ccc(F)cc1,-0.8,11,0.33,20
Cc1ccc(S(=O)(=O)N(C)C[C@H]2Oc3ccc(NC(=O)Cn4cnnn4)cc3C(=O)N([C@H](C)CO)C[C@@H]2C)cc1,nt,-7,0.1,2
Cc1ccc(S(=O)(=O)N2CCN(CC(O)COc3ccc4ccccc4c3)CC2)cc1 (stereo not given),-1.9,nt,nt,16
C[C@H](CO)N1C[C@H](C)[C@@H](CN(C)Cc2ccc3c(c2)OCO3)Oc2c(NC(=O)C3CC3)cccc2C1=O,-1.2,-27,-0.31,0
O=S(=O)(CS(=O)(=O)c1ccc(Cl)cc1)c1ccc(Cl)cc1,-0.1,-5,-0.22,7
COc1ccc(S(=O)(=O)Nc2ccc3c(c2)C(=O)N([C@H](C)CO)C[C@H](C)[C@@H](CN(C)S(=O)(=O)c2cn(C)cn2)O3)cc1,0.6,nt,0.034,0
C[C@H]1CN([C@@H](C)CO)C(=O)c2cccc(NC(=O)c3cnccn3)c2O[C@@H]1CN(C)S(=O)(=O)c1cn(C)cn1,0.9,-23,0.17,3
COc1ccc(NC(=O)N(C)C[C@H]2Oc3ccc(NC(=O)CCN4CCOCC4)cc3C(=O)N([C@H](C)CO)C[C@H]2C)cc1,0.0,-51,-1,2
Cc1noc(C)c1NC(=O)Nc1ccc2c(c1)CC(=O)N([C@H](C)CO)C[C@@H](C)[C@@H](CN(C)C(=O)Nc1ccc3c(c1)OCO3)O2,-0.2,nt,-0.49,0
Cc1ccc(S(=O)(=O)Nc2ccc3c(c2)CC(=O)N([C@H](C)CO)C[C@H](C)[C@H](CN(C)Cc2ccc(C(F)(F)F)cc2)O3)cc1,-0.2,7,-0.35,22
COc1ccc(NC(=O)Nc2ccc3c(c2)C(=O)N([C@@H](C)CO)C[C@H](C)[C@@H](CN(C)C(=O)Nc2cccc4ccccc24)O3)cc1,1.0,-6,-0.27,-2
Cc1nnc(SCC(=O)Nc2ccc(Oc3ccccc3)cc2)[nH]c1=O,2.6,nt,nt,-2
C[C@H](CO)N1C[C@H](C)[C@H](CN(C)S(C)(=O)=O)Oc2ccc(NS(=O)(=O)c3cn(C)cn3)cc2CC1=O,0.5,-21,-0.083,-7
O=C1CSC(=NC2CC2)N1Cc1cccs1,0.9,5,-0.19,4
COc1ccc(OC)c(-n2c(CN3CCC(C(N)=O)CC3)nc3ccccc3c2=O)c1,0.6,nt,nt,4
COc1ccc(S(=O)(=O)Nc2cccc3c2O[C@@H](CN(C)C(=O)NC(C)C)[C@@H](C)CN([C@@H](C)CO)C3=O)cc1,1.0,-83,-0.36,9
C[C@@H]1CN([C@H](C)CO)C(=O)c2cccc(NS(=O)(=O)c3cccs3)c2O[C@H]1CN(C)Cc1ccc(C(=O)O)cc1,1.5,4,-0.39,0
COC(=O)C1=C(Nc2ccc(OC(=O)c3cccc(C(F)(F)F)c3)cc2)CSC1,4.6,-1,0.068,-7
Cc1cc(I)ccc1NC(=O)CN(c1ccc(F)c(Cl)c1)S(C)(=O)=O,-1.0,nt,nt,-6
C[C@H](CO)N1C[C@H](C)[C@H](CN(C)Cc2ccccc2)Oc2c(NS(=O)(=O)c3ccccc3)cccc2C1=O,-1.8,4,0.53,-8
C[C@H]1CN([C@@H](C)CO)C(=O)c2cc(NC(=O)Nc3ccc(F)cc3)ccc2O[C@@H]1CN(C)Cc1ccc(C(F)(F)F)cc1,0.6,-8,-0.5,4
C[C@@H]1CN([C@H](C)CO)C(=O)c2cccc(NS(=O)(=O)c3cccs3)c2O[C@@H]1CN(C)C(=O)Nc1cccc2ccccc12,0.3,-19,0.47,4
O=C(COc1ccc2ccccc2c1Br)Nc1ncn[nH]1,2.1,nt,nt,-71
Cc1ccc(N(C(C)C(=O)Nc2ccc(F)c(Cl)c2)S(C)(=O)=O)cc1C (stereo not given),-1.2,nt,nt,11
C[C@H]1CN([C@@H](C)CO)C(=O)c2cccc(NC(=O)Nc3ccc4c(c3)OCO4)c2O[C@@H]1CN(C)Cc1ccccc1,nt,-7,-0.11,-27
CCOC(=O)c1oc(C(=O)OCC)c(O)c1O,0.5,-8,0.33,9
CC(C)NC(=O)N(C)C[C@H]1Oc2ccc(NC(=O)CCN3CCOCC3)cc2CC(=O)N([C@H](C)CO)C[C@H]1C,-0.3,52,0.42,4
C[C@@H]1CN([C@H](C)CO)C(=O)c2cccc(NC(=O)c3cnccn3)c2O[C@H]1CN(C)S(=O)(=O)c1ccccc1,2.5,31,-0.086,-3
CCOC(=S)Nc1ccc(I)cc1,0.5,-121,-0.38,3
C[C@H]1CN([C@@H](C)CO)C(=O)Cc2cc(N(C)C)ccc2O[C@H]1CN(C)Cc1ccc(C(=O)O)cc1,-0.6,-7,-0.13,-1
CC(=O)Nc1cccc(NC(=O)c2cc(-c3ccccn3)nc3ccc(Cl)cc23)c1,-1.3,nt,nt,35
C[C@H](CO)N1C[C@H](C)[C@H](CN(C)Cc2ccc(-c3ccccc3)cc2)Oc2ccc(NC(=O)CCN3CCOCC3)cc2CC1=O,-1.9,?,0.044,-6
C[C@@H]1CN([C@@H](C)CO)C(=O)c2cccc(NC(=O)Nc3cccc4ccccc34)c2O[C@H]1CN(C)S(=O)(=O)c1cn(C)cn1,nt,16,-0.048,1
Cc1ccc(-c2nc3c(c(SCC(=O)Nc4cccc(C(F)(F)F)c4)n2)COC(C)(C)C3)cc1,-3.5,nt,nt,-1
COc1ccc(OCC(=O)Nc2cc(-c3nnc(OC)c4ccccc34)ccc2N2CCCCC2)cc1,2.4,nt,nt,73
